CBX7 AlphaScr: blocks human CBX7 binding to H3K27me3 peptide | O95931 | AlphaScreen His6-CBX7 / biotin-H3K27me3 peptide binding; hits give low values | normalised signal (fraction of DMSO) (no concentration beside the values) | 66,000 compounds, 1.1% hits | AID 1224903; in the data active = normalised signal below about 0.5;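 also: 100 nL library stock added to about 20 µL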
Target sequence (O95931 whole entry, looked up): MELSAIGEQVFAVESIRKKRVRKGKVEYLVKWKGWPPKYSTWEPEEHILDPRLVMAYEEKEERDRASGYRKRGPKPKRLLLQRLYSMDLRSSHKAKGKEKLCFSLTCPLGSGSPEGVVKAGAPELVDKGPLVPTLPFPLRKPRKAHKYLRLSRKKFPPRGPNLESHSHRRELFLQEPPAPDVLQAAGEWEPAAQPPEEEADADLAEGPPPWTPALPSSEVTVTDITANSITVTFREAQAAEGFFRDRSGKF
CBX7 AlphaScr z-score: also measured in CBX7 AlphaScr; calls as there; z-score; measured here: z-score of CBX7 signal; some inactives read as strong as hits; reference of the scale not given here;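 same signal on another scale; lower means less binding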
* = called active by the depositor; & = joins results of further samples.

SMILES	CBX7 AlphaScr	CBX7 AlphaScr z-score
CCC(C)(C(=O)NC1CCCCC1)N(C(=O)c1cnccn1)c1ccccc1 (configuration not stated)	0.99	-0.65
CC1CC(C)CN(C(=O)c2cc3c(s2)-c2ccccc2OC3)C1 (configuration not stated)	1.2	12
COc1ccccc1CNC(=O)c1cc2oc(C)cc2n1Cc1ccc(Cl)cc1	0.84	-4.3
CCOc1ccc2nc(N3CCCC(C(=O)Nc4cccc(C)c4C)C3)sc2c1 (configuration not stated)	1	1
Fc1ccccc1-c1nnn(Cc2ccccn2)n1	0.98	-0.54
COc1ccc(NC(=O)CN(C)S(=O)(=O)c2cnc[nH]2)cc1	0.95	-0.58
COc1ccc(S(=O)(=O)N2CCCCC2)cc1C(=O)Nc1ccccc1	1	0.049
O=C1C2C(c3ccccc3)C=CC(c3ccccc3)C2C(=O)N1c1ccc(F)cc1 (configuration not stated)	0.92	-1.1
Cc1ccc(NC(=O)c2cc(CC(C)C)on2)cc1C	1.2	6.7
Cn1nc(-c2ccc(OCC(=O)NC(C)(C)C)cc2)c2ccccc2c1=O	1	0.75
CCCC(=O)NCCc1nc2ccccc2n1Cc1ccccc1F	1	0.53
CCOc1cc2c(cc1OCC)C(c1ccc(F)cc1)NCC2 (configuration not stated)	0.99	-0.037
CCOc1ccc(CCNC2CC(=O)N(c3ccc(C(=O)OC)cc3)C2=O)cc1OCC (configuration not stated)	1.2	1.9
CCOC(=O)N1CCN(C(=O)c2ccc3c(c2)N(Cc2ccccc2)CCS3)CC1	0.82	-0.24
COCCNC(=O)CCc1cn(Cc2ccc(C)cc2)c2ccccc12	0.75	-0.24
CC1CCCC(C)N1CCNC(=O)c1ccc2c(c1)ncn2C1CCCCC1 (configuration not stated)	0.99	-0.2
Cc1ccccc1NC(=O)CN(C)S(=O)(=O)c1cccc2cccnc12	1.2	1.9
Cc1ccc(-c2csc(Nc3cccc(C)c3C)n2)cc1	0.96	-1.7
CC1(C)CC(=O)N(CC(=O)NC2CC2)c2ccccc2S1(=O)=O	1	0.72
CCc1ccccc1NC(=O)C(Cc1ccccc1)N1C(=O)c2ccccc2C1=O (configuration not stated)	1	0.41
Cc1ccc(NC(=O)c2ccc3c(=O)n4c(nc3c2)CCCCC4)c(Cl)c1	1	0.6
CCOC(=O)c1cc(-c2ccc(OC)cc2)nc2ccc(Br)cc12	1.2	2.7
Cc1c(C(=O)Nc2ccccc2Cl)oc2ccc(S(=O)(=O)N(C)C3CCCCC3)cc12	1.1	3.6
CCN1C(=O)c2ccccc2S(=O)(=O)c2ccc(C(=O)N3CCOCC3)cc21	0.99	-0.29

Record cards, as listed above. Values in the order: CBX7 AlphaScr | CBX7 AlphaScr z-score
Cc1c(C(=O)Nc2ccccc2Cl)oc2ccc(S(=O)(=O)N(C)C3CCCCC3)cc12 is listed with 1.1 | 3.6
CCC(C)(C(=O)NC1CCCCC1)N(C(=O)c1cnccn1)c1ccccc1 (configuration not stated) is listed with 0.99 | -0.65
CCOC(=O)c1cc(-c2ccc(OC)cc2)nc2ccc(Br)cc12 is listed with 1.2 | 2.7
CC1CC(C)CN(C(=O)c2cc3c(s2)-c2ccccc2OC3)C1 (configuration not stated) is listed with 1.2 | 12
Cc1ccccc1NC(=O)CN(C)S(=O)(=O)c1cccc2cccnc12 is listed with 1.2 | 1.9

Later entries:
SMILES	CBX7 AlphaScr	CBX7 AlphaScr z-score
COc1cccc(CCNC(=O)CC2Sc3ccccc3NC2=O)c1OC (configuration not stated)	1	1.1
COc1ccc(-c2nc(CN3CCC(C(=O)NCC4CCCO4)CC3)c(C)o2)cc1OC (configuration not stated)	1	0.41
O=C(C1CC1)N1CCc2cc(S(=O)(=O)NCCc3ccc(Cl)cc3)ccc21	1	1.1
O=C(NCCc1c[nH]c2ccccc12)c1ccc(S(=O)(=O)N2CCOCC2)cc1	1	0.58
Cc1ccc2nc(N3CCC(C(=O)O)CC3)sc2c1	1	-0.12
COc1cccc(NC(=O)c2oc3ccc(S(=O)(=O)N4CCCCC4)cc3c2C)c1	1.1	4.4
COc1cccc(NC(=O)CN(C)S(=O)(=O)c2ccc3nc(C)sc3c2)c1	1.4	2.4
Cc1ccccc1Nc1c(-c2cccc(Br)c2)nc2cnccn12	1.2	1.5
COc1ccc(C(=O)Nc2nc(-c3ccc(C(C)C)cc3)cs2)cc1	1.1	2
Nc1nonc1-c1noc(-c2cccc(Cl)c2)n1	1.1	2.7
CCCCN(CC)CCNC(=O)c1cn(C2CCCCC2)c(=O)c2c1c1ccccc1n2C	0.92	-2
COC(CNC(=O)c1cc(-c2cccnc2)nc2ccc(S(=O)(=O)N3CCCCCC3)cc12)OC	0.99	-0.29
Cc1nc(-c2ccc(NC(=O)c3cccnc3)cc2)cs1	0.99	-0.53
CCOC(=O)N1CCN(c2c(N(C)Cc3ccccc3)c(=O)c2=O)CC1	1	0.59
COc1ccc(OC)c(NC(=O)C2CCN(S(=O)(=O)c3cccnc3)CC2)c1	1.1	2.5
COc1ccccc1CN1C(=O)c2ccccc2C1C(=O)NCCCN1C(C)CCCC1C (configuration not stated)	1.1	3.5
CC(=O)NCCc1nc2ccccc2n1Cc1c(C)c(C)cc(C)c1C	1	0.35
FC(F)(F)c1ccccc1Nc1nc(-c2ccccc2)c2cc(Br)ccc2n1	1.2	5.3
COc1ccc(Cn2c(CCC(=O)Nc3cccc(C)c3C)nc3cccnc32)cc1	1	0.14
O=C(CCc1nc(-c2ccccc2F)no1)NCCc1ccccc1Cl	1.2	3.6
COc1ccc(C(=O)NC(C)C(c2cccs2)N2CCN(c3ccccc3OC)CC2)cc1OC (configuration not stated)	0.94	-1.4
COc1cccc(-c2nc(CSCC(=O)NCCc3ccc(Cl)cc3)c(C)o2)c1	1.1	0.77
CC(C)(C)c1ccc(-c2nc(NCCCN3CCOCC3)c3ccccc3n2)cc1	0.91	-2.2
COCCCNC(=O)c1cc(-c2ccccn2)nc2ccc(S(=O)(=O)N3CCC(C)CC3)cc12	1	2.3
CCCCn1c(C2CC(=O)N(c3ccc(C)c(Cl)c3)C2)nc2ccccc21 (configuration not stated)	0.95	-0.23
CCCCCSc1oc(-c2cccs2)nc1S(=O)(=O)c1ccc(F)cc1	1.1	0.2
Cn1cc(CC(=O)Nc2ccc3c(c2)OCCO3)c2ccccc21	0.87	-1.5
Cn1c(SCC(=O)Nc2cccc(Cl)c2)nnc1-c1c[nH]c2ccccc12	0.84	-1.6
CCOC(=O)c1cc(-c2ccc(OC)cc2)n(CCC(=O)Nc2ccc(OC)cc2OC)c1C	0.79	-2.3
Cc1ccc(C(=O)N2CC(=O)Nc3ccc(C)cc3C2c2ccccc2)cc1 (configuration not stated)	1.1	1.1
Cc1ccc(CCNC(=O)C2CC(=O)N(CCc3ccc(C)cc3)C2)cc1 (configuration not stated)	1.1	1.2
COC(=O)Cn1c(-c2ccccc2Cl)nc2sc3c(c2c1=O)CCCC3	1.1	3.9
Fc1ccccc1-c1nc(Nc2ccc3c(c2)OCCO3)c2ccccc2n1	0.98	-0.65
Cc1ccc(CNC(=O)CS(=O)(=O)Cc2nc(-c3ccccc3C)oc2C)cc1	1.1	1.3
COc1ccc(-n2nc(C(=O)NCC(=O)Nc3ccc(C)c(F)c3)c3ccccc3c2=O)cc1	1.1	1.1
COc1ccc(NC(=O)Cn2cc(S(=O)(=O)c3ccc(F)cc3)c(=O)c3ccccc32)c(OC)c1	0.93	-2.3
Cc1ccc(-c2noc(CCC(=O)NCc3cccs3)n2)cc1	1	0.46
COc1ccccc1NC(=O)c1c(NCc2cccc(OC)c2OC)sc2c1CCC(C)C2 (configuration not stated)	0.66	-4.8
COc1cccc(CNC(=O)CN2C(=O)COc3ccc(C(C)(C)C)cc32)c1	0.78	-3.9
CCN1CCN(c2cc(C)c3cc(NC(=O)CCc4ccc(OC)cc4)ccc3n2)CC1	1.1	0.64
Cc1sc2ncn(CC(=O)NC3CCCCC3)c(=O)c2c1C	1.2	2.2
CC1CCCC(NC(=O)c2cn(C3CCCC3)c(=O)c3c2c2ccccc2n3C)C1C (configuration not stated)	0.98	-0.62
CCCN1CCN(CCCNC(=O)C2CCCN(c3nc4ccc(OCC)cc4s3)C2)CC1 (configuration not stated)	1	0.77
Nc1nonc1-c1nc2ccccc2n1Cc1cccc2ccccc12	0.79	-2.9
Cc1ccc(C)c2[nH]c(=O)c(CCNC(=O)C(C)(C)Oc3ccc(Cl)cc3)cc12	0.98	-0.51
Cc1nc2c(-c3ccccc3)c(C)nn2c(C)c1CCC(=O)NCCN1CCOCC1	1.1	0.81
O=C(NC1CCCCC1)c1cc2n(n1)C(C(F)(F)F)CC(c1ccc(Cl)c(Cl)c1)N2 (configuration not stated)	1	0.56
C=CCN(C(=O)Cn1nc(Cc2ccncc2)c2ccccc2c1=O)c1ccccc1	0.96	-0.95
Cc1nc(NCCN2CCOCC2)c2c3c(sc2n1)CCCC3	1	1.2
O=C1c2ccccc2C(=O)N1c1cccc(-c2csc(Nc3ccc4c(c3)OCO4)n2)c1	1.6&1.9	10&9.9
CCOc1ccc2nc(NC3=NCCC(=O)N3)nc(C)c2c1	1.1&1.1	1.4&1.4
CCC1CCCCN1C(=O)c1cc(-c2ccc(Cl)cc2)on1 (configuration not stated)	1	0.018
CCOc1ccc2nc(N3CCCC(C(=O)NCCCN4CC(C)CC(C)C4)C3)sc2c1 (configuration not stated)	1	0.8
Cc1cccc(N2CCN(S(=O)(=O)c3ccc4c(c3)CCN4C(=O)C3CC3)CC2)c1C	0.96	-1.2
Cc1cc(N2CCN(c3ncccn3)CC2)nc2ccc(NC(=O)c3cccnc3)cc12	0.98	-0.13
COc1cc(NC(=O)CCCC2=NS(=O)(=O)c3ccccc3N2)cc(OC)c1	0.99	-0.071
CCOC(=O)c1c(C)n(-c2ccc(C)cc2)c2ccc(OCC(O)CN3CCC(C)CC3)cc12 (configuration not stated)	0.76	-5
COCCNc1cc(C)nc2c(-c3ccccc3OC)c(C)nn12	0.85	-1.6
CN(c1nc(Cc2ccccc2)nc2sc3c(c12)CCCC3)C1CCCCC1	1.1	2.8
COc1ccc(CNc2ccc(-c3nc4cc(C)ccc4s3)cc2)cc1OC	1.1&1.1	1.7&0.36
Later entries:
SMILES	CBX7 AlphaScr	CBX7 AlphaScr z-score
CCC(=O)Nc1sc2c(c1C(=O)Nc1ccc(Cl)cc1)CCC2	0.88	-1.3
CCOc1ccc(-n2ccnc2SCC(=O)Nc2ccc(OC(F)(F)F)cc2)cc1	0.72	-0.38
Cc1ccc(-n2cnc3cc(Nc4nnc(-c5ccc(Cl)cc5)c5ccccc45)ccc32)cc1	1.1	1.3
Cc1ccc(Cl)cc1N1C(=O)C2C3c4ccccc4C(C)(c4ccccc43)C2C1=O (configuration not stated)	0.94	-1.7
Cc1ccc2c(c1)NC(=O)C(CC(=O)NCCCN1CCCCC1C)O2 (configuration not stated)	0.98	-0.39
Cc1ccc(N2C(=O)CC(c3cn(C)c4ccccc34)C2=O)cc1 (configuration not stated)	0.74	-2.8
COc1ccc(-c2nn(C)c(=O)c3ccccc23)cc1NC(=O)COc1cccc(C)c1	1	1.1
Cc1ccc(Nc2cc(C(=O)NCCN3CCOCC3)c3ccccc3n2)cc1C	1.1	2.7
O=C(CSc1nc2ccccc2[nH]1)Nc1ncccn1	1	1.2
Cc1cc2c(cc1C)NC(CC(=O)Nc1cccc(Cl)c1)C(=O)N2 (configuration not stated)	1	0.21
CCC(C)NC(=O)Cn1nc(Cc2ccncc2)c2ccccc2c1=O (configuration not stated)	1.1	2.5
Cc1ccc2oc(-c3cccc(NC(=O)COc4cccc(C)c4C)c3)nc2c1	1.3	2.8

Reprinted at random: 7 entries already listed
SMILES	CBX7 AlphaScr	CBX7 AlphaScr z-score
Cc1ccc2oc(-c3cccc(NC(=O)COc4cccc(C)c4C)c3)nc2c1	1.3	2.8
Cc1ccc(Nc2cc(C(=O)NCCN3CCOCC3)c3ccccc3n2)cc1C	1.1	2.7
COc1ccc(-c2nn(C)c(=O)c3ccccc23)cc1NC(=O)COc1cccc(C)c1	1	1.1
Cc1ccc(-n2cnc3cc(Nc4nnc(-c5ccc(Cl)cc5)c5ccccc45)ccc32)cc1	1.1	1.3
Cc1ccc2c(c1)NC(=O)C(CC(=O)NCCCN1CCCCC1C)O2 (configuration not stated)	0.98	-0.39
Cc1ccc(N2C(=O)CC(c3cn(C)c4ccccc34)C2=O)cc1 (configuration not stated)	0.74	-2.8
CCOc1ccc(-n2ccnc2SCC(=O)Nc2ccc(OC(F)(F)F)cc2)cc1	0.72	-0.38

(next part)
SMILES	CBX7 AlphaScr	CBX7 AlphaScr z-score
Cc1cccc(NC(=O)c2cnn3cccnc23)c1C	1.1	1.1
Clc1ccc(-c2csc3ncnc(Oc4ccc5ccccc5c4)c23)cc1	1.3	0.51
Cc1cc2nc(-c3cccc(NC(=O)c4cc(Cl)ccc4Cl)c3)oc2cc1C	1	0.21
CCOC(CNC(=O)C1CCN(c2nc3ccccc3[nH]2)CC1)OCC	0.98	-0.26
CCOC(=O)C1CCN(C(C(=O)NC2CCCC2)c2ccccc2)CC1 (configuration not stated)	1	1.5
COc1cccc(C2=NOC(C(=O)N3CCc4ccccc4C3)C2)c1 (configuration not stated)	0.86	-1.8
CC1(C)CC(=O)N(CC(=O)NCc2ccccc2)c2ccccc2S1	1	0.59
COc1cccc(NC(=O)CSc2nccn2-c2cccc(Cl)c2)c1	0.84	-2.9
CCCCCOc1ccc(NC(=O)Nc2ccc(Br)cc2)cc1	1.2	1.6
Cc1cccc(C(=O)Nc2ccccc2-c2nc3ccccc3[nH]2)c1	1	0.63
CCC1CCCCN1CCCNC(=O)C1CCN(C(=O)c2cc3sccc3n2C)CC1 (configuration not stated)	0.94	-1.1
CC1(C)CC(=O)C2=C(C1)N(c1cccc(C(F)(F)F)c1)C(=O)CC2c1cccs1 (configuration not stated)	0.98	-0.16
O=C(NCCc1ccccc1)c1ccc2c(c1)N(Cc1ccccc1)C(=O)CS2	0.94	-0.23

Screening data from PubChem BioAssay.

Some of the compounds tested; rates above refer to the full screens.
